MgrA DNA FP = alters Staphylococcus aureus MgrA binding to DNA; fluorescence polarization; inhibition, %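 (about 10 µg/mL by stock and volumes)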; 84,000 tested, 0.13% active;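 active = above 50% in either of two replicates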;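 also: 0% = protein plus DNA without compound and 100% = DNA alone without protein; higher means less MgrA bound to DNA so lower polarization; one replicate is shown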
Sa helicase inh = blocks Staphylococcus aureus DNA helicase; inhibition, %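 (tested at about 80 µM)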; AID 485395; 120,000 tested, 0.05% active; purified S. aureus helicase, fluorescence unwinding assay; about half of the hits fall short of the stated cut;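 active = both duplicates at 50% or more, or one of them with a favoured structure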;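 also: 0% = mean of negative control wells and 100% = mean of positive control wells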
* hit, by the source's call; & = joins results of further samples. These rows are one share of the data; rates above refer to the full screens.

Preview (7 entries):
`COc1cccc(C(=O)NC2CC3CCCC(C2)N3CC(=O)Nc2ccc(N(C)C)cc2)c1` (stereo not drawn) gave MgrA DNA FP -1.6 and Sa helicase inh 9.0.
For O=C(CCCc1ccccc1)NCC1CCCO1 (stereo not drawn) the results were MgrA DNA FP 0.5 and Sa helicase inh 7.0.
Screening COC(=O)c1ccc(C2C3=C(CC(C)(C)CC3=O)OC3=C2C(=O)CC(C)(C)C3)cc1 returned MgrA DNA FP -0.8.
CC(C)C(OC(=O)c1cccs1)C(=O)NC1CCCC1 (stereo not drawn) was read as MgrA DNA FP 2.8 and Sa helicase inh 4.0.
`CN1CCC(N(C)C(=O)c2nn(-c3ccccc3)c(=O)c3ccccc23)CC1` gave Sa helicase inh 4.0.
For O=C1CCCN1CO the results were MgrA DNA FP -1.9 and Sa helicase inh 12.0.
Oc1ccc(Cl)cc1N=Cc1ccc(-c2ccc(Br)cc2)o1 was read as MgrA DNA FP -0.4 and Sa helicase inh 1.0.

This part in full, from the first entry:
`COc1cccc(C(=O)NC2CC3CCCC(C2)N3CC(=O)Nc2ccc(N(C)C)cc2)c1` (stereo not drawn) gave MgrA DNA FP -1.6 and Sa helicase inh 9.0.
For O=C(CCCc1ccccc1)NCC1CCCO1 (stereo not drawn) the results were MgrA DNA FP 0.5 and Sa helicase inh 7.0.
Screening COC(=O)c1ccc(C2C3=C(CC(C)(C)CC3=O)OC3=C2C(=O)CC(C)(C)C3)cc1 returned MgrA DNA FP -0.8.
CC(C)C(OC(=O)c1cccs1)C(=O)NC1CCCC1 (stereo not drawn) was read as MgrA DNA FP 2.8 and Sa helicase inh 4.0.
`CN1CCC(N(C)C(=O)c2nn(-c3ccccc3)c(=O)c3ccccc23)CC1` gave Sa helicase inh 4.0.
For O=C1CCCN1CO the results were MgrA DNA FP -1.9 and Sa helicase inh 12.0.
Oc1ccc(Cl)cc1N=Cc1ccc(-c2ccc(Br)cc2)o1 was read as MgrA DNA FP -0.4 and Sa helicase inh 1.0.
`CN(CCc1ccccn1)c1ncnc2c1oc1ccccc12` gave Sa helicase inh 10.0.
Screening COc1cc(-c2nc3ccccn3c2N)ccc1O returned MgrA DNA FP 1.9.
`N#Cc1ccc(Sc2ccccc2)nc1` gave MgrA DNA FP 0.4.
Oc1ccc(NC(=S)Nc2ccc(O)cc2)cc1 was read as MgrA DNA FP -0.8 and Sa helicase inh 18.0.
For COc1ccc(C(=O)C(C)OC(=O)c2cc(C)nc3ccccc23)cc1 (stereo not drawn) the results were Sa helicase inh -10.0.
Cc1ccc(NC(=O)c2ccccc2C)cc1 was read as MgrA DNA FP -1.8 and Sa helicase inh 14.0.
Screening CC(C)NC(=S)N/N=C/c1ccn[nH]1 returned Sa helicase inh -19.0.
Screening O=C1c2ccccc2C(=O)N1CCOc1ncnc2c(Cl)cc(Cl)cc12 returned Sa helicase inh 16.0.
Screening O=C(CSc1ccccn1)Nc1c(F)cccc1F returned MgrA DNA FP 0.8.
Screening O=C(Cn1ncc2c(=O)oc3ccccc3c21)Nc1cccc(Cl)c1 returned MgrA DNA FP 0.9 and Sa helicase inh 20.0.
For Cc1cccc(N2CCN(C(=O)CS(=O)(=O)Cc3nc(-c4ccccc4F)oc3C)CC2C)c1 (stereo not drawn) the results were Sa helicase inh 15.0.
Screening CCN(CC(=O)Nc1ccc(NC(C)=O)cc1)C(=O)Cc1ccccc1F returned Sa helicase inh 0.0.
Screening O=C(c1ccc(Br)cc1)n1c(=O)oc2ccccc21 returned Sa helicase inh 5.0.
`CCN(CC)CCc1c(O)n(-c2ccccc2)n(-c2ccccc2)c1=O` gave Sa helicase inh -9.0.
Cc1cc(Br)ccc1NCc1ccc2c(c1)OCO2 was read as MgrA DNA FP 0.2 and Sa helicase inh 7.0.
`N#CC1=C(SCC(=O)NC2CCCCC2)NC(=O)CC1c1ccccc1F` (stereo not drawn) gave Sa helicase inh 22.0.
For COc1cccc(CNc2ncn[nH]2)c1 the results were MgrA DNA FP -3.7 and Sa helicase inh -1.0.
`O=C(CSc1ncnc2sc3c(c12)CCCC3)c1ccccc1` gave MgrA DNA FP 2.9 and Sa helicase inh 15.0.
For CC(=O)NC1(c2ccccc2)CCNCC1 the results were Sa helicase inh -21.0.
For OC(c1ccccc1)C1CCCCC1 (stereo not drawn) the results were MgrA DNA FP 0.5.
`NS(=O)(=O)c1ccc(-c2ccc(/C=C3\COc4ccccc4C3=O)o2)cc1` gave Sa helicase inh -58.0.
O=S(=O)(Nc1ccc2c(c1)OCCO2)c1ccc(-c2ccccn2)s1 was read as MgrA DNA FP -1.9.
For COC(=O)c1cccc(NC(=O)CC(C)C)c1 the results were MgrA DNA FP -2.2 and Sa helicase inh 15.0.
Screening CCCCC(=O)Nc1cccc(-c2cn3ccsc3n2)c1 returned Sa helicase inh 26.0.
For CC(C)n1nnc(CC(N)=O)n1 the results were Sa helicase inh 5.0.
`CC(c1ccccc1)C1C(C#N)=C(N)OC2=C1C(=O)CC(C)(C)C2` (stereo not drawn) gave Sa helicase inh 9.0.
`COc1cc(OC)cc(C(=O)Nc2cccc(-c3nn4c(C)nnc4s3)c2)c1` gave Sa helicase inh -23.0.
Screening O=S(=O)(c1ccc(Cc2ccc(S(=O)(=O)N3CCC4(CC3)OCCO4)cc2)cc1)N1CCC2(CC1)OCCO2 returned Sa helicase inh 3.0.
Screening Cc1cc(C(=O)Oc2ccc3c(c2)OCO3)c(C)s1 returned Sa helicase inh -5.0.
`NC(=O)COC(=O)c1c2c(nc3ccccc13)CCC2` gave MgrA DNA FP 3.7 and Sa helicase inh -8.0.
`Cc1c(C(=O)C(C#N)c2nc3ccccc3[nH]2)oc2c(Cl)cccc12` (stereo not drawn) gave Sa helicase inh -5.0.
Screening CS(=O)(=O)c1ccc2nc(NC(=O)COc3ccc(Oc4ccccc4)cc3)sc2c1 returned MgrA DNA FP 3.3.
`CCCCN1C(=O)CC(NNCc2ccccc2)C1=O` (stereo not drawn) gave Sa helicase inh 17.0.
O=C(CN1C(=O)C2CC=CCC2C1=O)NC1=NCCS1 (stereo not drawn) was read as Sa helicase inh 29.0.
OCCN(Cc1ccccc1)c1ncnc2c1oc1ccccc12 was read as Sa helicase inh -3.0.
Screening Cc1csc2nc(COC(=O)c3ccc4c(c3)NC(=O)C3CCCN43)cc(=O)n12 (stereo not drawn) returned Sa helicase inh 11.0.
For Cc1cc(NC(=O)C2CC(c3ccc(Cl)cc3)=NO2)no1 (stereo not drawn) the results were MgrA DNA FP -0.1 and Sa helicase inh 3.0.
O=C(NCC1CCNCC1)c1ccc(/C=N/O)nc1 was read as Sa helicase inh 8.0.
CC(C)(C)NS(=O)(=O)Cc1ccccc1Cl was read as MgrA DNA FP 0.4 and Sa helicase inh -14.0.
For COCCNC(=O)N1c2ccccc2Sc2ccccc21 the results were MgrA DNA FP 2.1 and Sa helicase inh -4.0.
Cc1ccccc1NC(=O)CCc1c(C)nc2cc(-c3ccccc3)nn2c1C was read as Sa helicase inh 0.0.

The list goes on (two carried over from the part before).
For COCCNC(=O)N1c2ccccc2Sc2ccccc21 the results were MgrA DNA FP 2.1 and Sa helicase inh -4.0.
Cc1ccccc1NC(=O)CCc1c(C)nc2cc(-c3ccccc3)nn2c1C was read as Sa helicase inh 0.0.
Cc1cccc(N2COc3cc(C)c(Cl)c(C)c3C2)c1 was read as Sa helicase inh -33.0.
C[n+]1ccc(/C=C\c2ccco2)c2ccccc21 was read as MgrA DNA FP -1.8 and Sa helicase inh -25.0.
`COc1cc(/C=C/C(=O)O)cc(Cl)c1O` gave Sa helicase inh 12.0.
Screening Cc1ccc(C(C(=O)NC2CCCCC2)N(C)C)cc1 (stereo not drawn) returned Sa helicase inh -19.0.
For O=C(Nc1ccc(F)cc1OC(F)(F)F)N1CCC(O)CC1 the results were Sa helicase inh -21.0.
Screening CCc1ccc(NC(=O)c2cnc(Nc3ccc(OC)cc3)c3ccccc23)cc1 returned MgrA DNA FP -1.3 and Sa helicase inh -5.0.
For CC(=O)N1CCN(S(=O)(=O)c2cccc(C(=O)NCCc3ccccn3)c2)CC1 the results were Sa helicase inh 9.0.
COC(=O)c1sc2nc(-c3ccccc3)cc(-c3ccccc3)c2c1N was read as MgrA DNA FP 0.6 and Sa helicase inh -12.0.
`CCn1c(CCNC(=O)c2ccccc2)nc2ccccc21` gave Sa helicase inh 8.0.
Screening Cc1cnc2c(c1)C(=O)CCC2 returned MgrA DNA FP -3.4&-1.6.
For O=C(Nc1ccc(F)c(Cl)c1)c1ccccc1O the results were MgrA DNA FP -1.7.
Screening COc1cc(/C=C/C(=O)O)cc(S(=O)(=O)N2CCc3ccccc32)c1OC returned MgrA DNA FP 1.1 and Sa helicase inh 4.0.
CCN(CC)Cc1nonc1C was read as MgrA DNA FP -6.2 and Sa helicase inh -1.0.
For CSc1nnc2n(/N=C/c3cc4c(cc3Br)OCO4)cnn12 the results were MgrA DNA FP -2.1 and Sa helicase inh 21.0.
S=C(NCC1CCCO1)NC1CCCCC1 (stereo not drawn) was read as MgrA DNA FP -2.5 and Sa helicase inh 3.0.
For Cc1cccc(C(=O)NC2=NCC(C)S2)c1 (stereo not drawn) the results were Sa helicase inh -3.0.
For CCCc1[nH]nc2c1C(C1CC=CCC1)C(C#N)=C(N)O2 (stereo not drawn) the results were Sa helicase inh -21.0.
CCOC(=O)c1nc(COc2ccccc2Cl)no1 was read as MgrA DNA FP 1.4.
Screening Cc1ccc2onc(CNC(=O)Nc3ccccc3C)c2c1 returned Sa helicase inh -12.0.
Screening N#Cc1c(N2CCCCCC2)ncc2cc3ccccc3nc12 returned Sa helicase inh -388.0.
For CCC(=O)OCC(=O)Nc1cccc2ccccc12 the results were MgrA DNA FP -1.1 and Sa helicase inh -9.0.
For ONC(=NCc1ccccc1)c1cccc(Cl)c1 the results were MgrA DNA FP -3.6.
`Cc1ccc2[nH]c(-c3ccccc3)c(CN3CCCC(C)C3)c(=O)c2c1` (stereo not drawn) gave Sa helicase inh -7.0.
CC(NC(=O)OCc1ccccc1)C(=O)Oc1ccc2c(=O)c(-c3ccc(F)cc3)coc2c1 (stereo not drawn) was read as MgrA DNA FP 0.0 and Sa helicase inh 11.0.
`CCC(CC)C(=O)NCCc1ccc(OC)c(OC)c1` gave MgrA DNA FP -0.6 and Sa helicase inh 11.0.
For O=C1C2=C(Nc3ccccc3SC2c2ccc(O)cc2)c2ccccc21 (stereo not drawn) the results were MgrA DNA FP 2.0 and Sa helicase inh 3.0&6.0.
`Cc1nn(C)c(C)c1NS(=O)(=O)c1cc(Cl)sc1Cl` gave MgrA DNA FP -4.8.
Screening c1csc(-c2csc3nc(CN4CCOCC4)nc(Sc4ncn[nH]4)c23)c1 returned Sa helicase inh -5.0.
Screening CC(c1ccccc1F)n1cc(C(=O)NCCCn2ccnc2)nn1 (stereo not drawn) returned MgrA DNA FP -3.0 and Sa helicase inh 4.0.
Screening Cc1c(Sc2nc3ccccc3s2)c(=O)[nH]c2cc3c(cc12)OCO3 returned Sa helicase inh 2.0.
`Cc1nc(-n2cc(-c3ccccc3)nn2)nc2c1CCCC2` gave MgrA DNA FP -3.1.
`S=c1[nH]nc(NC2CCCCC2)s1` gave MgrA DNA FP 1.2.
For O=C1NC(=Nc2ccccc2)SC1Cc1cccc(C(F)(F)F)c1 (stereo not drawn) the results were Sa helicase inh 24.0.
`C=CCN1c2ccccc2NC(=O)C1CC(=O)Nc1ccc(C)cc1` (stereo not drawn) gave Sa helicase inh -1.0.
For NC(=O)CCN1CCN(S(=O)(=O)/C=C/c2ccccc2)CC1 the results were Sa helicase inh -6.0.
For CC(C)Cn1nnc2c(=O)oc3ccccc3c21 the results were MgrA DNA FP 1.9 and Sa helicase inh 12.0.
`N/C(CN1CCSCC1)=N\O` gave Sa helicase inh -7.0.
Cc1ccccc1NC1C=CS(=O)(=O)C1 (stereo not drawn) was read as Sa helicase inh -7.0.
For O=c1cc(C(F)(F)F)[nH]c2n[nH]c(-c3cccs3)c12 the results were MgrA DNA FP -2.7.
Screening CSc1nnc(Cn2c(=O)sc3ccccc32)n1C returned Sa helicase inh -23.0.
COc1ccc(-c2cc3c(=O)n(CC(=O)NC4CCC(C)CC4)ncn3n2)cc1 (stereo not drawn) was read as MgrA DNA FP 0.7 and Sa helicase inh -1.0.
COc1ccc(-c2noc(CN(C(=O)NC3CCCCC3)C(C)C)n2)cc1OC was read as MgrA DNA FP -0.1 and Sa helicase inh 5.0.
Screening CCN1C(=O)CSC1=Nc1ccccc1Cl returned MgrA DNA FP -0.9.
For COC(=O)c1ccc(/C=N/OCC(=O)Nc2ccc3c(c2)OCCO3)cc1 the results were Sa helicase inh -6.0.
For CC(C)CCNc1cc(-c2ccccc2)nc2nncn12 the results were Sa helicase inh -1.0.
Screening CCOC(=O)COc1cc2oc(=O)cc(-c3ccccc3)c2cc1Cl returned Sa helicase inh 21.0.
`COc1ccc(OC)c(S(=O)(=O)Nc2cnc3ccccc3c2)c1` gave Sa helicase inh -19.0.
`CC(C)N(C(=O)CSc1nc2ccccc2[nH]1)c1ccccc1` gave Sa helicase inh 9.0.
For CN(CC(=O)NC1CCCCC1)c1nnc(N2CCCC2=O)s1 the results were MgrA DNA FP -0.7 and Sa helicase inh -3.0.
Screening COc1ccc(-c2nnco2)cc1 returned MgrA DNA FP 2.6 and Sa helicase inh 13.0.
`COc1ccccc1N(C)C(=O)CCS(=O)(=O)c1ccc2c(c1)n(C)c(=O)c(=O)n2C` gave Sa helicase inh -8.0.
CN1CCN(c2ccc(NC(=O)COc3cccc4ccccc34)cc2)CC1 was read as MgrA DNA FP -2.3 and Sa helicase inh 15.0.
`Cc1ccc2c(Cl)cc(Cl)c(OCC(=O)N3CCCC3)c2n1` gave MgrA DNA FP 0.9 and Sa helicase inh 0.0.
CCn1cc(C(=O)NCC(OC)OC)c(=O)c2cc(S(=O)(=O)N3CC(C)CC(C)C3)ccc21 (stereo not drawn) was read as Sa helicase inh -1.0.
For CC(C)CN1C(=O)C(=Nc2cccnc2)c2ccccc21 the results were MgrA DNA FP 2.2 and Sa helicase inh 0.0.
Screening CS(=O)(=O)c1ccc2nc(NC(=O)CCSc3ccccc3)sc2c1 returned Sa helicase inh -15.0.
For COc1cc(CC/C(C)=N/O)ccc1O the results were MgrA DNA FP -0.2.

Screening results (PubChem)
